Ecoli growth: blocks Escherichia coli growth | 330,000 tested, 0.21% active | OD600 absorbance (no concentration beside the values) | OD600, 23 h; hits give low values;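 active = OD600 absorbance below the run mean of sample wells minus 3.6 SD, in any replicate, cut at about 0.56 in these data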;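 also: stock transfer was 300 nL into about 60 µL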
HNF4A DNA FP: change in binding of human HNF4 alpha to DNA. HNF4a-FITC DNA binding, fluorescence polarization, 1 h. 360,000 tested, 0.3% active. P41235. AID 1224865. activity change, % at 10 µM; in the data active = activity change above about 30%, passing the limit was not always enough;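 also: controls were the assay level and a saturating level of protein; the project sought stronger binding though the title names inhibitors; some compounds called inactive have numbers as strong as hits; positive values seem to mean higher polarization but the record does not say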
Target sequence (P41235 whole entry, looked up): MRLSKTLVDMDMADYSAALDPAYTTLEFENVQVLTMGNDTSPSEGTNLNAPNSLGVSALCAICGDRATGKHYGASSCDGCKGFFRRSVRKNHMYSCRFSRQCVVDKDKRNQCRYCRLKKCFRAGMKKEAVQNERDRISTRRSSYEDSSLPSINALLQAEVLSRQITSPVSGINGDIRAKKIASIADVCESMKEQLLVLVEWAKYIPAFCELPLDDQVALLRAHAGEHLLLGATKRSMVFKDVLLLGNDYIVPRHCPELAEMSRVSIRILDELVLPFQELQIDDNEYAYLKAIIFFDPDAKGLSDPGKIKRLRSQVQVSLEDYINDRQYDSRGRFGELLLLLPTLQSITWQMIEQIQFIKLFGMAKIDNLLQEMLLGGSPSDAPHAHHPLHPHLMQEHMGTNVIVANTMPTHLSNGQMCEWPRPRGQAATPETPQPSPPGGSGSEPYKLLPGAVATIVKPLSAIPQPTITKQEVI
FGF22 binding: shifts melting point of recombinant human FGF22; recombinant FGF22 thermal shift, SYPRO orange fluorescence; percent of sucrose octasulfate shift, DMSO zero; calls only at 9.99 µM; 340,000 tested, 1.5% active; AID 651658;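 active = melting point raised past a set limit in the mean and every replicate; three in four hits are not shown here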
UCH37 DUB inh: human UCH37 deubiquitinating enzyme inhibition; inhibition, % (no concentration beside the values); 330,000 tested, 0.33% active; purified proteasome/UCH37, Ub-AMC cleavage fluorescence; AID 588478; Q9Y5K5;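 active = mean of two replicates above 20%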;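 also: 0% = compound-free wells with enzyme and 100% = wells lacking proteasome; stock transfer was 100 nL into about 20 µL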
Target sequence (Q9Y5K5 whole entry, looked up): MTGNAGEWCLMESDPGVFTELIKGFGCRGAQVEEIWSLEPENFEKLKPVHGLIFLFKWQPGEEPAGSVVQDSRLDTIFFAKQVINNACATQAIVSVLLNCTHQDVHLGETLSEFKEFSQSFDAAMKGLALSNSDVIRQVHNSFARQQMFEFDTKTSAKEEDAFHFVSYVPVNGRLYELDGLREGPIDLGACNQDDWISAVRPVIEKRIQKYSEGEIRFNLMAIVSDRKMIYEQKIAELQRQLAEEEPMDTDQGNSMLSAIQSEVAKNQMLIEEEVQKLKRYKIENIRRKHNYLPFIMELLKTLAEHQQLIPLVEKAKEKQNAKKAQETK
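Reagent: Ub-AMC substrate; assay system: Proteasome-associated human UCH37 deubiquitinase; controls: no-proteasome and no-compound wells; read-out: % inhibition of Ub-AMC cleavage fluorescence; timing: 30 min preincubation with enzyme, 25 min cleavage at room temperature; signal: AMC fluorescence from Ub-AMC cleavage, excitation 355 nm, emission 460 nm; buffer or medium: Tris-HCl pH 7.4 plus ovalbumin, ATP-MgCl2, DTT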
Beta2AR agonist: agonists of human beta-2 adrenergic receptor inducing internalization. P07550. Am2.2-beta2AR cells, FAP receptor internalization, flow cytometry; reference of the scale not given here. response, % (concentration not given with the values). 340,000 tested, 0.43% active;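 active = response above a set limit, near 3 SD of response in nonfluorescent compounds, cut at about 42% in these data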;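 also: stock transfer was 100 nL into about 11 µL; a reference agonist was the positive control; negative values mostly stem from fluorescent compounds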
rRNA inh HTS: selective bacterial rRNA inhibition in E. coli. E. coli WT GFP vs humanized-ribosome RFP mutants, fluorescence, 24 h; hits give low values; DMSO median 0, no signal -100. 350,000 tested, 1.6% active. GFP signal change (wild-type ribosome), % (no concentration beside the values);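 active = significant combined selectivity score with lowered wild-type GFP, culture density cut under 30%, mutant RFP and density less affected; inactive = any of these conditions unmet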; also: one replicate is shown; some compounds called inactive have numbers as strong as hits
ALR inh: human ALR oxidase inhibition via reduced H2O2. 290,000 tested, 3.8% active. AID 485317. purified ALR, DTT oxidation, H2O2 HRP-luminol luminescence. inhibition, % (test concentration not listed). P55789;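 active = mean and each replicate at 75% or more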;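 also: stock transfer was 7.5 nL into about 7.5 µL; 0% = neutral wells and 100% = wells with inactivated enzyme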
Target sequence (P55789 whole entry, looked up): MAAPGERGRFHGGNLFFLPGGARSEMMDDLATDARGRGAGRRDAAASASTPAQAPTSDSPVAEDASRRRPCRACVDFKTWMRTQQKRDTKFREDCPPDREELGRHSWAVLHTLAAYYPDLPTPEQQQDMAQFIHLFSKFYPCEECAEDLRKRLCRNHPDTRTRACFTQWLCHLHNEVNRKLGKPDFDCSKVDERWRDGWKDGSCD
rRNA inh HTS OD600: also measured in rRNA inh HTS; calls as there; OD600 change, %; measured here: OD600 growth;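 optical density of the mix in the first replicate; 0 = DMSO median and -100 = no signal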
rRNA inh HTS RFP: further read-out of rRNA inh HTS, marked with its call; RFP signal change, %; measured here: RFP humanized mutant strains;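 first replicate; 0 = DMSO median and -100 = no signal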
* = called active by the depositor; i = inactive; nt = not tested or not shown.

Start of the data: the first 14 records, ahead of the listing:
SMILES	Ecoli growth	HNF4A DNA FP	FGF22 binding	UCH37 DUB inh	Beta2AR agonist	rRNA inh HTS	rRNA inh HTS OD600	rRNA inh HTS RFP	ALR inh
O=C(CNC(=O)C1CCCCC1)NNC(=O)c1ccc(Cl)cc1Cl	0.71	1.5	i	1.6	-3	18	10	-2.2	-3
CCCCN(C)C(=O)c1nc2ccccn2c1CN1CCN(C/C=C/c2ccccc2)CC1	0.67	-0.7	i	-5.5	-6	9	-7	0.4	-4
O=C(Nc1nnc(C2=COCCO2)o1)c1ccc([N+](=O)[O-])cc1	0.71	2.2	i	7.4	5	23	16	4.2	1
Cc1ccc(CCC(=O)Nc2ccc(Br)cc2)o1	0.66	0.5	i	-1.4	-13	-7	0	-2.5	3
COc1ccc(NC(=O)CSc2nnc(Cn3cnc([N+](=O)[O-])n3)n2C)cc1	0.69	-2.7	nt	4.3	3	nt	nt	nt	nt
CS(=O)(=O)Nc1ccc(-c2cn3cccnc3n2)cc1	0.66	-3.0	i	i	-2	-4	-8	0.7	nt
CCc1ccc(NC(=O)Cn2c3[n+](c4c(F)c(F)ccc42)CCCCC3)cc1	0.68	-4.0	i	2.4	0	-43	-37	12	0
CC(=O)N1CCN(Cc2nc3cc(NC(=O)c4ccccc4Cl)ccc3n2C)CC1	0.73	-1.3	i	4.2	-1	9	7	2.0	-20
CCN=C1SC(C(=O)Nc2ccc(Cl)c(Cl)c2)CC(=O)N1CC (stereo unspecified)	0.76	-0.6	nt	2.1	0	nt	nt	nt	-2
NC(=O)CC(NC(=O)Cc1cccc2ccccc12)c1ccc(NC2CCCCC2)c([N+](=O)[O-])c1 (stereo unspecified)	nt	51*	i	nt	-5	21	18	1.4	-5
CCOC(=O)c1[nH]c(=O)c2ccccc2c1O	0.67	-6.3	nt	-81	0	nt	nt	nt	11
Cc1cc(C)cc(NC(=O)COC(=O)CCc2ccc(S(=O)(=O)N3CCOCC3)cc2)c1	0.65	-5.6	i	2.8	-1	4	-4	-3.9	0
COC(CNC(=O)c1ccc2c(c1)ncn2-c1ccc(F)cc1F)OC	0.68	0.5	i	3.7	-1	nt	nt	nt	-6
CCc1nn(CC(=O)NC2CCN(Cc3ccccc3)CC2)c(=O)c2cc3cc(F)ccc3n12	0.7	0.7	i	-3.7	-3	8	5	-3.3	-2

The list itself, repeating the preview:
SMILES	Ecoli growth	HNF4A DNA FP	FGF22 binding	UCH37 DUB inh	Beta2AR agonist	rRNA inh HTS	rRNA inh HTS OD600	rRNA inh HTS RFP	ALR inh
O=C(CNC(=O)C1CCCCC1)NNC(=O)c1ccc(Cl)cc1Cl	0.71	1.5	i	1.6	-3	18	10	-2.2	-3
CCCCN(C)C(=O)c1nc2ccccn2c1CN1CCN(C/C=C/c2ccccc2)CC1	0.67	-0.7	i	-5.5	-6	9	-7	0.4	-4
O=C(Nc1nnc(C2=COCCO2)o1)c1ccc([N+](=O)[O-])cc1	0.71	2.2	i	7.4	5	23	16	4.2	1
Cc1ccc(CCC(=O)Nc2ccc(Br)cc2)o1	0.66	0.5	i	-1.4	-13	-7	0	-2.5	3
COc1ccc(NC(=O)CSc2nnc(Cn3cnc([N+](=O)[O-])n3)n2C)cc1	0.69	-2.7	nt	4.3	3	nt	nt	nt	nt
CS(=O)(=O)Nc1ccc(-c2cn3cccnc3n2)cc1	0.66	-3.0	i	i	-2	-4	-8	0.7	nt
CCc1ccc(NC(=O)Cn2c3[n+](c4c(F)c(F)ccc42)CCCCC3)cc1	0.68	-4.0	i	2.4	0	-43	-37	12	0
CC(=O)N1CCN(Cc2nc3cc(NC(=O)c4ccccc4Cl)ccc3n2C)CC1	0.73	-1.3	i	4.2	-1	9	7	2.0	-20
CCN=C1SC(C(=O)Nc2ccc(Cl)c(Cl)c2)CC(=O)N1CC (stereo unspecified)	0.76	-0.6	nt	2.1	0	nt	nt	nt	-2
NC(=O)CC(NC(=O)Cc1cccc2ccccc12)c1ccc(NC2CCCCC2)c([N+](=O)[O-])c1 (stereo unspecified)	nt	51*	i	nt	-5	21	18	1.4	-5
CCOC(=O)c1[nH]c(=O)c2ccccc2c1O	0.67	-6.3	nt	-81	0	nt	nt	nt	11
Cc1cc(C)cc(NC(=O)COC(=O)CCc2ccc(S(=O)(=O)N3CCOCC3)cc2)c1	0.65	-5.6	i	2.8	-1	4	-4	-3.9	0
COC(CNC(=O)c1ccc2c(c1)ncn2-c1ccc(F)cc1F)OC	0.68	0.5	i	3.7	-1	nt	nt	nt	-6
CCc1nn(CC(=O)NC2CCN(Cc3ccccc3)CC2)c(=O)c2cc3cc(F)ccc3n12	0.7	0.7	i	-3.7	-3	8	5	-3.3	-2
Cc1cccc(C)c1NC(=O)CN(C)CC(=O)N(C)CC(=O)Nc1ccccc1Br	0.71	-1.5	i	1.3	-4	7	10	-0.9	nt
Cc1nc(C)c(C(=O)Nc2cccc(F)c2)s1	0.64	-1.4	i	4.0	-6	10	9	-2.0	-2
COc1ccccc1CNC(=O)CNCC1CCCO1 (stereo unspecified)	0.73	2.9	nt	0.8	-1	nt	nt	nt	nt
O=C(NCN1CCOCC1)c1cnccn1	0.7	2.3	i	1.3	6	16	13	-1.7	-6
O=C1C2C(C(=O)N1/N=C/c1cc([N+](=O)[O-])c(O)cc1O)C1C=CC2C12CC2 (stereo unspecified)	nt	-18	i	nt	3	3	4	1.1	0
COc1ccc(-c2cc(NC=O)c3ncc(-c4ccccc4)n3c2)cc1OC	nt	5.4	i	nt	nt	4	10	5.7	nt
O=C(CSc1nnc(SCc2ccccc2)s1)N/N=C/c1ccc(C(=O)O)cc1	nt	-2.6	nt	nt	-1	-1	-8	-4.2	nt
COC(=O)C(Cc1ccccc1)NC(=O)c1ccc(C)cc1 (stereo unspecified)	0.68	-0.6	i	3.6	10	-2	-5	-3.8	-5
COc1ccc(C2C(C#N)=C(N)OC3=C2C(=O)CC(C)C3)c(OC)c1OC (stereo unspecified)	0.65	1.7	nt	1.9	-8	9	16	3.2	-19
COc1ccccc1Oc1ccc2c(c1)C(=O)N(c1cccc(O)c1)C2=O	0.71	0.6	nt	1.8	5	nt	nt	nt	-4
CC(C)C[C@H](NC(=O)NCc1ccccc1Cl)C(=O)O	0.71	-2.5	nt	2.6	-5	nt	nt	nt	-13

Complete entries as entered above. Order of screens: Ecoli growth, HNF4A DNA FP, FGF22 binding, UCH37 DUB inh, Beta2AR agonist, rRNA inh HTS, rRNA inh HTS OD600, rRNA inh HTS RFP, ALR inh
COc1ccc(NC(=O)CSc2nnc(Cn3cnc([N+](=O)[O-])n3)n2C)cc1 across the screens: 0.69, -2.7, nt, 4.3, 3, nt, nt, nt, nt
Cc1cccc(C)c1NC(=O)CN(C)CC(=O)N(C)CC(=O)Nc1ccccc1Br across the screens: 0.71, -1.5, i, 1.3, -4, 7, 10, -0.9, nt

Going on with the list:
SMILES	Ecoli growth	HNF4A DNA FP	FGF22 binding	UCH37 DUB inh	Beta2AR agonist	rRNA inh HTS	rRNA inh HTS OD600	rRNA inh HTS RFP	ALR inh
CC(C)c1ccc(OC(=O)NCCO)cc1	0.75	1.1	nt	4.8	1	nt	nt	nt	4
COC(=O)CCC/C=C1\SC[C@@H](NC(=O)c2ccccc2)C1NC(C)=O (stereo partly specified)	0.69	-2.7	i	0.0	6	4	5	-0.5	-2
COc1ccc(OCC(=O)Nc2ccc(S(=O)(=O)Nc3cc(C)nc(C)n3)cc2)cc1	0.69	-1.3	nt	2.6	2	nt	nt	nt	-2
COc1ccccc1NC(CC(=O)c1ccccc1)C(=O)OCC(=O)c1ccc(Br)cc1 (stereo unspecified)	0.72	3.6	nt	2.5	-7	nt	nt	nt	1
Cc1cc(C)c(C(=O)CSc2nnc(-c3cccnc3)n2C)c(C)c1	0.69	-0.4	i	3.3	11	nt	nt	nt	37
O=C1NC(c2ccccn2)Nc2sc3c(c21)CCC3 (stereo unspecified)	0.69	-0.1	nt	-2.7	-4	nt	nt	nt	-12
CCCc1nc2ccccc2c(C(=O)O)c1CC	0.66	1.4	nt	3.4	1	nt	nt	nt	-5
C=C[C@@](C)(O)CC[C@@H]1[C@@]2(C)CCCC(C)(C)[C@@H]2CC[C@@]1(C)O	nt	-4.2	i	nt	-2	nt	nt	nt	-3
Cc1c(CNCCc2ccc(Cl)cc2)c(C(=O)O)c(C)n1-c1ccccc1	0.69	-1.8	i	5.0	21	-1	2	2.8	nt
Cc1cccc(NC(=O)CN(C)C(=O)C2CC2)c1C	0.7	1.5	i	1.0	-9	9	8	4.1	0
CCN(CC)c1ccc(NC(=O)COc2ccccc2C#N)cc1S(=O)(=O)Nc1ccccc1OC	0.7	-0.9	i	0.4	-2	9	10	4.0	1
CN1OC[C@@H]2CN(Cc3ccc(Cl)cc3)[C@H](c3ccc(-n4ccnc4)cc3)C[C@@H]21	nt	-1.1	i	nt	nt	-60	-80	-20	nt
COc1ccc(C2CC(=O)Oc3ccc(OC)cc32)cc1 (stereo unspecified)	0.69	-1.0	i	-2.1	-7	-13	-10	-1.1	nt
Cc1nc2ccc(C(=O)O)cc2[nH]1	0.66	-5.8	nt	0.0	0	nt	nt	nt	-25
Cc1ccc(S(=O)(=O)NCCC(=O)OCC(=O)N2CCCC2=O)cc1	0.71	-1.4	i	1.0	-2	10	15	-0.7	0
CC(C)CNC(=O)C1(C)CCCCCN1Cc1ccccc1-c1ccccc1 (stereo unspecified)	nt	-5.6	i	nt	nt	7	-18	-3.2	nt
O=C(CNC(=O)C(c1ccccc1)c1ccccc1)N/N=C\c1ccc(C(=O)O)cc1	nt	4.8	i	nt	-3	11	1	-0.9	0
CC(=O)Nc1ccc(S(=O)(=O)NC2=NCN(C)CN2)cc1	0.68	-0.7	nt	-0.3	-1	nt	nt	nt	-6
Cc1ccc2c(CC(=O)Nc3cccc(S(=O)(=O)N4CCOCC4)c3)coc2c1	0.7	1.6	nt	0.5	-10	-30	-36	-0.3	nt
Oc1cccc(Nc2ncnc3c2oc2ccccc23)c1	0.7	2.3	i	-3.7	9	-5	-19	-6.8	-152
NC(=O)NOCc1ccc(F)cc1Cl	0.7	2.7	i	1.0	4	4	9	3.1	-3
CCOC(=O)N1C(=O)c2cc(OC)ccc2S1(=O)=O	0.71	-2.2	nt	2.1	0	nt	nt	nt	0
COc1ccc(CN2CC(C(=O)NCCc3ccccc3)CC2=O)cc1 (stereo unspecified)	0.76	0.2	nt	-2.0	nt	nt	nt	nt	-6
COc1ccc(/C=C/C(=O)NNC(=O)c2ccncc2)c(OC)c1	0.69	0.6	i	6.4	12	-7	2	-8.1	2

Source: PubChem BioAssay

These rows are one share of the data (hit frequency here may not be typical).
